Compound activity deposited in PubChem BioAssay by several laboratories.
Mtb hypoxia rep = PubChem AID 1159583 | M. tuberculosis hypoxia-regulated fluorescent reporter, fluorescence | fluorescence inhibition, % (concentration not given with the values) | 0.1% of 300,000 active;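 active means 35 to 45% if threefold the growth effect, above 45% if 1.5-fold the growth effect; inactive means the rest, general growth blockers included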;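 further: wells of about 50 µL received 100 nL stock; 0% = vehicle wells and 100% = reference inhibitor wells; whole bacteria with a GFP reporter of the hypoxia response; strong numbers were not always called active; many hits fall short of the cut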
PrP UTR inh = inhibition of PrP 5' UTR reporter expression | cell-based PrP 5' UTR mRNA reporter, plate reader | inhibition, % (concentration not given with the values) | 0.35% of 340,000 active;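 active means every replicate at 50% or more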;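 further: 0 = median of the neutral control wells; tested in H4 reporter cells; numbers are from one replicate; inactives centre near -14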
ugtP null kill = growth inhibition of ugtP-null S. aureus, primary screen, RN4220 ugtP deletion, OD600; 16 h; some inactives read as strong as hits; growth inhibition, % (no concentration beside the values); 0.54% of 330,000 active;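 active means z-score under -3 and OD600 up to 0.15 on both plates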;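 further: plate controls were untreated wells for no effect and antibiotic for full effect; wells of about 80 µL received 100 nL stock; the first replicate is given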
BJeLR lethal = MLPCN primary cell-based screen for lethality selective to Ras in HRASV12 cells | BJeLR (HRASV12) viability, CellTiter-Glo ATP luminescence, 48 h; reference of the scale not given here | AID 1554, 2009 | 0.17% of 300,000 active | inhibition, % (no concentration beside the values);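 active means replicate mean above 50%; inconclusive means above 50% but judged a plate artefact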;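 further: 50 nL library stock added to about 25 µL; numbers are from one replicate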
RN4220 kill = growth inhibition of S. aureus RN4220, primary screen, OD600; 0.33% of 330,000 active; AID 1259311, 2017; 16 h; inhibition, % (concentration not given with the values);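 active means z-score of -3 or lower and OD600 up to 0.18 on both plates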;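 further: plate controls were untreated cells for no effect and reference antibiotic for full effect; stock transfer was 100 nL into about 80 µL; one replicate is shown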
Autofluor counter = counter-screen for toxin protease inhibitors: compound fluorescence. fluorescence intensity (no concentration beside the values). 3.1% of 360,000 active. AID 624483. compound autofluorescence counterscreen, microsphere flow cytometry; active compounds read high;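 active means at least 3 SD above the mean of all compounds, about 16000 in these data; inconclusive means too few beads counted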;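 further: 100 nL of 1 mM stock went into each well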
Mtb hypoxia rep growth = also measured in Mtb hypoxia rep; calls as there; growth inhibition, %; measured here: M. tuberculosis growth (absorbance);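 0% = vehicle and 100% = reference antibiotic; read after six days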
Starred values were filed as active, the others as inactive. The order is random; about 4% have a hit in one of these screens.

How did CCN(CC)C(=O)c1[nH]cnc1C(=O)NCCCCCNC(=O)OC(C)(C)C do in these assays?
Mtb hypoxia rep: 5.7; PrP UTR inh: -12.3; ugtP null kill: -2.5; RN4220 kill: 4.4; Autofluor counter: 4504; Mtb hypoxia rep growth: 6.7

How did COc1cc(C=NNC(=O)c2c(-c3c(Cl)cccc3Cl)noc2C)ccc1OCC(N)=O do in these assays?
Mtb hypoxia rep: 2.7; ugtP null kill: 5.1; RN4220 kill: 6.5; Mtb hypoxia rep growth: -5.8

Results for Cc1cc(C(=O)COc2ccccc2[N+](=O)[O-])c(C)n1C1CC1 ?
Mtb hypoxia rep: -5.2; PrP UTR inh: -33.3; ugtP null kill: -4.9; BJeLR lethal: 3.3; RN4220 kill: 1.8; Autofluor counter: 3060; Mtb hypoxia rep growth: 3.7

How did CC(C)CSc1nnc2[nH]c(=O)cc(N)n12 do in these assays?
Mtb hypoxia rep: 9.8; PrP UTR inh: -16.1; ugtP null kill: -3.4; BJeLR lethal: 10.1; RN4220 kill: -5.4; Autofluor counter: 2354; Mtb hypoxia rep growth: 0.5

What do the screens show for `Cc1ccccc1Nc1ccc([N+](=O)[O-])cn1`?
Mtb hypoxia rep: 6.0; PrP UTR inh: -16.5; ugtP null kill: 0.5; BJeLR lethal: 0.4; RN4220 kill: -1.3; Autofluor counter: 2913; Mtb hypoxia rep growth: -2.0

How did O=C(O)/C=C/c1cn(Cc2ccccc2)nc1-c1ccccc1 do in these assays?
PrP UTR inh: -28.6; ugtP null kill: -1.8; BJeLR lethal: -10.4; RN4220 kill: -3.4; Autofluor counter: 2675

What do the screens show for `O=C(CSc1nnc(COc2ccccc2)n1-c1ccccc1)c1cccs1`?
Mtb hypoxia rep: -4.0; PrP UTR inh: -10.1; ugtP null kill: -24.5; BJeLR lethal: -5.7; RN4220 kill: 5.2; Autofluor counter: 3177; Mtb hypoxia rep growth: 4.0

Results for O=C(Nc1ccc(Br)cn1)c1ccc2ccccc2c1 ?
Mtb hypoxia rep: 10.1; PrP UTR inh: -72.4; ugtP null kill: 12.3; BJeLR lethal: -7.5; RN4220 kill: 3.5; Autofluor counter: 3670; Mtb hypoxia rep growth: 11.9

What do the screens show for `CN(C)/C=C/C(=O)c1ccc(Cl)c([N+](=O)[O-])c1`?
Mtb hypoxia rep: 1.0; PrP UTR inh: -14.3; ugtP null kill: 1.9; BJeLR lethal: -3.5; RN4220 kill: 3.9; Autofluor counter: 4673; Mtb hypoxia rep growth: 2.5

How did O=C(O)/C(=C\c1ccc(-c2ccccc2[N+](=O)[O-])o1)c1ccccc1 do in these assays?
Mtb hypoxia rep: 4.4; PrP UTR inh: 1.6; ugtP null kill: -9.1; BJeLR lethal: -1.8; RN4220 kill: 6.4; Autofluor counter: 3936; Mtb hypoxia rep growth: 6.0

How did c1ccc2c(c1)OCC(c1nnc3n1-c1ccccc1SC3)O2 (configuration not stated) do in these assays?
Mtb hypoxia rep: 24.3; PrP UTR inh: -17.2; ugtP null kill: 14.3; BJeLR lethal: -6.3; RN4220 kill: -8.5; Autofluor counter: 2840; Mtb hypoxia rep growth: -17.8

How did COC(=O)C1=C(C)N(CC(C)C)C(=O)C1 do in these assays?
Mtb hypoxia rep: -3.6; PrP UTR inh: -5.8; ugtP null kill: 4.7; BJeLR lethal: 1.4; RN4220 kill: 6.9; Autofluor counter: 7676; Mtb hypoxia rep growth: -7.2

Results for O=C(N1CCOCC1)N1CCOCC1 ?
Mtb hypoxia rep: 2.4; PrP UTR inh: -18.8; ugtP null kill: -4.4; BJeLR lethal: 9.3; RN4220 kill: 1.8; Autofluor counter: 21351*; Mtb hypoxia rep growth: -1.3

How did Cn1cc(Cl)c(C(=O)Nc2cnn(Cc3ccc(F)cc3)c2)n1 do in these assays?
Mtb hypoxia rep: 5.6; PrP UTR inh: -13.1; ugtP null kill: 11.0; BJeLR lethal: 2.7; RN4220 kill: 2.5; Autofluor counter: 7650; Mtb hypoxia rep growth: 2.9

Results for Cc1cc(Cl)ccc1OCCCC(=O)NN=Cc1cccc([N+](=O)[O-])c1 ?
Mtb hypoxia rep: 4.2; ugtP null kill: -13.3; RN4220 kill: -5.5; Mtb hypoxia rep growth: 2.7

How did O=[N+]([O-])c1cc(-c2nnc(Nc3ccc(O)cc3)c3ccccc23)ccc1N1CCOCC1 do in these assays?
PrP UTR inh: 11.9; BJeLR lethal: -1.1; Autofluor counter: 2031

What do the screens show for `CCOC(=O)COc1ccccc1-c1ccno1`?
Mtb hypoxia rep: 0.4; PrP UTR inh: -14.1; ugtP null kill: 2.1; BJeLR lethal: -1.0; RN4220 kill: 2.7; Autofluor counter: 21115*; Mtb hypoxia rep growth: -7.8

What do the screens show for `CCn1c(NCc2cc(Br)ccc2NS(=O)(=O)c2ccc(C)cc2)nc2ccccc21`?
PrP UTR inh: 8.7; ugtP null kill: -33.0; BJeLR lethal: 2.7; RN4220 kill: -13.8; Autofluor counter: 2817

Results for CCC(C(=O)N1CCN(S(=O)(=O)c2ccc(F)cc2)CC1)c1ccccc1 (configuration not stated) ?
Mtb hypoxia rep: -1.0; PrP UTR inh: -4.1; ugtP null kill: 10.3; RN4220 kill: 9.5; Autofluor counter: 2957; Mtb hypoxia rep growth: -6.4

How did O=C(Nc1ccccc1C(=O)N/N=C/c1ccco1)c1ccc(F)cc1 do in these assays?
PrP UTR inh: -1.4; BJeLR lethal: 8.8; Autofluor counter: 2407

What do the screens show for `COCC(=O)/C=C1\Sc2ccccc2N1C`?
Mtb hypoxia rep: 11.3; PrP UTR inh: -35.1; ugtP null kill: -8.0; BJeLR lethal: 8.8; RN4220 kill: 7.3; Autofluor counter: 7994; Mtb hypoxia rep growth: 6.0

Results for CCN(CC(=O)Nc1ccc(OC)cc1)C(=O)c1cc([N+](=O)[O-])ccc1N1CCOCC1 ?
Mtb hypoxia rep: -0.4; PrP UTR inh: -11.3; ugtP null kill: -0.2; BJeLR lethal: 1.9; RN4220 kill: 1.2; Autofluor counter: 5466; Mtb hypoxia rep growth: 8.3

How did COc1ccc(-c2cc(C3CCN(Cc4cccc(C(F)(F)F)c4)CC3)[nH]n2)cc1 do in these assays?
Mtb hypoxia rep: 0.9; PrP UTR inh: -10.8; ugtP null kill: -16.0; BJeLR lethal: 3.8; RN4220 kill: -0.2; Autofluor counter: 2250; Mtb hypoxia rep growth: 27.6

Results for O=C(NCC1CCCO1)C(=O)N/N=C/c1c(F)cccc1Cl (configuration not stated) ?
PrP UTR inh: -25.5; BJeLR lethal: 3.7; Autofluor counter: 4208

What do the screens show for `Cc1cc(C)nc(N2CCCC(C(=O)NCCc3cccc(F)c3)C2)n1` (configuration not stated)?
Mtb hypoxia rep: 3.4; PrP UTR inh: -9.7; ugtP null kill: 1.7; BJeLR lethal: 4.6; RN4220 kill: 6.1; Autofluor counter: 11199; Mtb hypoxia rep growth: 5.4

Results for CCCn1c(=N)c(C(=O)NCc2ccc3c(c2)OCO3)cc2c(=O)n3cccc(C)c3nc21 ?
Mtb hypoxia rep: -10.5; PrP UTR inh: -34.3; ugtP null kill: 10.2; BJeLR lethal: -6.8; RN4220 kill: -2.0; Autofluor counter: 10588; Mtb hypoxia rep growth: -1.0

How did CC(=O)c1ccc(-n2c(CCC(=O)O)ccc2-c2cccs2)cc1 do in these assays?
Mtb hypoxia rep: -1.3; PrP UTR inh: -14.6; ugtP null kill: 7.3; BJeLR lethal: 0.4; RN4220 kill: 12.0; Autofluor counter: 9453; Mtb hypoxia rep growth: 1.3

What do the screens show for `CCOP(=S)(OCC)c1ccc(N(C)C)cc1`?
Mtb hypoxia rep: -1.3; PrP UTR inh: 20.7; ugtP null kill: 2.8; BJeLR lethal: 16.4; RN4220 kill: 4.7; Autofluor counter: 10826; Mtb hypoxia rep growth: 7.3

Results for CCOC(=O)CNC(=O)N1c2ccccc2Sc2ccccc21 ?
Mtb hypoxia rep: 10.5; PrP UTR inh: -7.9; ugtP null kill: 13.4; BJeLR lethal: 9.4; RN4220 kill: 4.5; Autofluor counter: 5376; Mtb hypoxia rep growth: 13.5

How did O=C(NCc1nc(-c2ccc(C(F)(F)F)cc2)no1)Nc1cc(Cl)cc(Cl)c1 do in these assays?
Mtb hypoxia rep: 4.8; PrP UTR inh: -7.9; ugtP null kill: 99.5*; BJeLR lethal: -4.4; RN4220 kill: 100.5*; Mtb hypoxia rep growth: 2.5

The last 4 records of the section above open the next one:
How did CC(=O)c1ccc(-n2c(CCC(=O)O)ccc2-c2cccs2)cc1 do in these assays?
Mtb hypoxia rep: -1.3; PrP UTR inh: -14.6; ugtP null kill: 7.3; BJeLR lethal: 0.4; RN4220 kill: 12.0; Autofluor counter: 9453; Mtb hypoxia rep growth: 1.3

What do the screens show for `CCOP(=S)(OCC)c1ccc(N(C)C)cc1`?
Mtb hypoxia rep: -1.3; PrP UTR inh: 20.7; ugtP null kill: 2.8; BJeLR lethal: 16.4; RN4220 kill: 4.7; Autofluor counter: 10826; Mtb hypoxia rep growth: 7.3

Results for CCOC(=O)CNC(=O)N1c2ccccc2Sc2ccccc21 ?
Mtb hypoxia rep: 10.5; PrP UTR inh: -7.9; ugtP null kill: 13.4; BJeLR lethal: 9.4; RN4220 kill: 4.5; Autofluor counter: 5376; Mtb hypoxia rep growth: 13.5

How did O=C(NCc1nc(-c2ccc(C(F)(F)F)cc2)no1)Nc1cc(Cl)cc(Cl)c1 do in these assays?
Mtb hypoxia rep: 4.8; PrP UTR inh: -7.9; ugtP null kill: 99.5*; BJeLR lethal: -4.4; RN4220 kill: 100.5*; Mtb hypoxia rep growth: 2.5

How did CC(C)(C)NC(=O)CN(Cc1cccnc1)C(=O)c1csnn1 do in these assays?
Mtb hypoxia rep: 11.2; PrP UTR inh: -16.6; ugtP null kill: 2.8; BJeLR lethal: -8.3; RN4220 kill: 2.3; Autofluor counter: 7799; Mtb hypoxia rep growth: 8.8

What do the screens show for `OC(CNc1nc2ccccc2s1)c1ccccc1` (configuration not stated)?
Mtb hypoxia rep: 15.3; PrP UTR inh: -20.0; ugtP null kill: 3.9; BJeLR lethal: 0.4; RN4220 kill: 6.7; Autofluor counter: 2777; Mtb hypoxia rep growth: 9.4

How did Cc1cc(=O)[nH]c(NN=C2C3CC4CC(C3)CC2C4)n1 do in these assays?
Mtb hypoxia rep: -10.6; PrP UTR inh: -6.7; ugtP null kill: 3.7; BJeLR lethal: 8.7; RN4220 kill: 4.3; Autofluor counter: inconclusive; Mtb hypoxia rep growth: -9.1

What do the screens show for `Cc1nn(-c2ccccc2)c(Oc2ccc(F)cc2)c1C=Nn1cnnc1`?
Mtb hypoxia rep: 15.2; ugtP null kill: 0.8; RN4220 kill: -1.3; Mtb hypoxia rep growth: 4.2

Results for COc1ccc(CC2(CO)CCN(Cc3cc4ccccc4o3)CC2)cc1 ?
Mtb hypoxia rep: 2.6; PrP UTR inh: -27.9; ugtP null kill: -0.9; BJeLR lethal: 9.5; RN4220 kill: 6.0; Autofluor counter: 3312; Mtb hypoxia rep growth: 4.8

What do the screens show for `COc1ccc(C(=O)NN=Cc2ccccc2OC(=O)c2ccccc2)cc1`?
Mtb hypoxia rep: 8.7; ugtP null kill: -15.0; RN4220 kill: 8.1; Mtb hypoxia rep growth: 18.1

How did CC(C)CN1CCNC(=O)C1CC(=O)NCCc1cnn(-c2ccccc2)c1 (configuration not stated) do in these assays?
Mtb hypoxia rep: 1.2; PrP UTR inh: 0.8; ugtP null kill: 1.3; BJeLR lethal: -1.9; RN4220 kill: 4.5; Autofluor counter: 4788; Mtb hypoxia rep growth: 7.3

What do the screens show for `Cc1cc(Nc2nc3ccccc3nc2Cl)n(-c2ccccc2)n1`?
Mtb hypoxia rep: -0.6; PrP UTR inh: -28.9; ugtP null kill: -1.8; BJeLR lethal: -14.1; RN4220 kill: 0.1; Autofluor counter: 9428; Mtb hypoxia rep growth: 0.5

How did Cc1oc2ccc(OC(=O)N(C)C)cc2c1C(=O)OC(C)C do in these assays?
Mtb hypoxia rep: 11.6; PrP UTR inh: -6.7; ugtP null kill: 11.4; BJeLR lethal: 5.4; RN4220 kill: 7.6; Autofluor counter: 7337; Mtb hypoxia rep growth: 5.3

What do the screens show for `Cc1ccc(-n2c(C)cc(C(=O)NS(=O)(=O)c3ccc(C)cc3)c2C)cc1`?
Mtb hypoxia rep: 17.4; PrP UTR inh: -9.0; ugtP null kill: 98.2*; BJeLR lethal: 8.3; RN4220 kill: 2.5; Autofluor counter: 2791; Mtb hypoxia rep growth: 7.4
